# KCNQ2 enhance = potentiators of rat KCNQ2 potassium channel | O88943 | CHO-K1 KCNQ2, FluxOR thallium flux fluorescence; hits give high values | B-score at 10 µM | actives 0.54% (n = 310,000);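 active = fluorescence ratio B-score at least 3 SD of library B-scores, with initial fluorescence B-score within 3 SD, cut at about 5.3 in these data; same plate scores as AID 2156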;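 also: B-score of peak minus minimum over baseline fluorescence ratio after K+ and Tl+ stimulus; positive B-score means potentiation of KCNQ2 with more thallium influx and brighter signal; only the inactives scoring about 0 or higher are listed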
# Target sequence (O88943 whole entry, looked up): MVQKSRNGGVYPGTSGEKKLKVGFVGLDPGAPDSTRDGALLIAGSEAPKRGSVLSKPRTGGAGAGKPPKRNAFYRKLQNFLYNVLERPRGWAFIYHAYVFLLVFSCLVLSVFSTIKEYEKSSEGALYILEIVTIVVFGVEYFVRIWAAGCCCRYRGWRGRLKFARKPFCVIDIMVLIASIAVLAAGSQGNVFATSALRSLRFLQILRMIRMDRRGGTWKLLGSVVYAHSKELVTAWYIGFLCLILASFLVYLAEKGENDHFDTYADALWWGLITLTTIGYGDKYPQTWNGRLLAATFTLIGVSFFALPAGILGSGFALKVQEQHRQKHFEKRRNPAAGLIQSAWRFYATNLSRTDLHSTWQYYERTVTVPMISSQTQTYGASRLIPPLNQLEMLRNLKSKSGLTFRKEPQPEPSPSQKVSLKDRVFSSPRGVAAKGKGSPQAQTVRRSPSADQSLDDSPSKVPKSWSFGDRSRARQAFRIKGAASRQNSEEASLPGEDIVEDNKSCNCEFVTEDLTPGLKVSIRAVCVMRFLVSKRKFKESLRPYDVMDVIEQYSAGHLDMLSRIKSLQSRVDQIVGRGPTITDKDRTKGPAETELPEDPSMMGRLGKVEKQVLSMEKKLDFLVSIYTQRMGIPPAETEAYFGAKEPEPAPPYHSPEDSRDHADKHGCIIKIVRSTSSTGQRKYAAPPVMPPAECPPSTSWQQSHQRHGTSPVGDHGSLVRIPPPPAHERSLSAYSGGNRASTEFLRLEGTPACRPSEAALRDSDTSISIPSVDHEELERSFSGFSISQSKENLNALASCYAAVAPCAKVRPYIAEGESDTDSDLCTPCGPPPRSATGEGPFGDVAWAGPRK
# KCNQ2 enhance baseline = also measured in KCNQ2 enhance; calls as there; B-score; compound at 10 µM; measured here: initial fluorescence intensity artifact check;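 brightness before thallium and not channel activity; 0 = typical well and far values either way flag optical interference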
# Starred values were filed as active, the others as inactive. Only part of the results is shown. The share of hits here may be higher or lower than overall.
KCNQ2 enhance	KCNQ2 enhance baseline	smiles
1.1	1.7	CC1=C(C(=O)N2CCCC(CCC(=O)NCc3ccc(F)c(F)c3)C2)OCCO1 (stereo not given)
0.92	-1	CCOc1ccc(NC(=O)CCCN2C(=S)NC(C)(C)CC2C)cc1 (stereo not given)
0.68	-1.1	CCn1c(SCC(=O)N/N=C/C(C)=C\c2ccco2)nnc1-c1ccccc1
1.2	1.3	CN(C)S(=O)(=O)c1cccc(NC(=S)NC23CC4CC(CC(C4)C2)C3)c1
1.3	0.14	COc1ccc(NS(=O)(=O)c2ccc(N)c(C(=O)O)c2)cc1
0.01	-2.2	CN(CC(=O)N1CC=C(c2ccccc2)CC1)S(=O)(=O)c1cnc[nH]1
0.86	0.02	Cc1ccc(-n2nnnc2SCC(=O)N(CC(C)C)c2c(N)n(CC(C)C)c(=O)[nH]c2=O)cc1
0.49	-0.47	COc1cccc(NC(=O)CCCOc2cc(=O)n(C)c3ccccc23)c1
1.2	0.14	COc1ccc(CNC(=O)CCC(=O)Nc2cccnc2)cc1
0.73	-0.29	Cc1c(Cl)cccc1NC(=S)N1CCN(c2ccccn2)CC1
0.18	-1.9	CCc1ccccc1NC(=O)Cn1ccn(-c2ccc(OC)cc2)c(=O)c1=O
0.32	0.65	CC(C(=O)OCn1nnc2ccccc2c1=O)N1C(=O)c2ccccc2C1=O (stereo not given)
1.5	0.1	CC(C)(C)c1ccc(C(=O)c2cn[nH]c2-c2ccccc2O)cc1
0.83	-0.56	CCc1noc(C)c1C(=O)N(C)CC(=O)Nc1ccccc1C(F)(F)F
2.9	-1.9	Cc1cc(SCC(=O)NC(=O)NCc2ccco2)nc2c(C)cccc12

# Next part.
KCNQ2 enhance	KCNQ2 enhance baseline	smiles
0.2	-0.62	N#Cc1nc(-c2ccco2)oc1N1CCC(C(N)=O)CC1
0.39	1.1	O=C(Nc1ccccc1)N1CCN(S(=O)(=O)c2ccccc2)CC1
1.4	-0.61	COCNc1nc(OCC#N)nc(N(C)C)n1
0.14	1.8	Fc1c(F)c(F)c(N/N=C/c2c[nH]c3ccccc23)c(F)c1F
0.81	-2.5	CCOC(=O)c1ccc(NC(=S)NC(=O)COc2ccccc2)cc1
0.51	0.7	CCN1CCN(c2ccc(NC(=O)c3ccco3)cc2Cl)CC1
0.04	1.8	Cn1c(=O)c2c(nc(N3CCOCC3)n2CCc2ccccc2)n(C)c1=O
0.65	-0.09	O=C(NCc1ccco1)C1CCCN1C(=O)Nc1ccc(Br)cc1 (stereo not given)
0.32	-1.6	CCOc1ccc(C(=O)Nn2cnnc2)cc1
1.7	0.72	CCc1ccc(OCC(=O)Nc2cc(S(=O)(=O)CC)ccc2O)cc1
1.2	-0.93	N#CC1=C(N)OC2=C(C(=O)CCC2)C1c1ccc(OC(=O)N2CCOCC2)cc1 (stereo not given)
0.06	0.03	O=C1c2ccccc2C(=O)N1CCCON1C(=O)c2ccccc2C1=O
1.2	1.4	COc1ccc(C2N=C(N)N=C(N)N2c2ccccc2)cc1OC (stereo not given)
0.16	0.67	Cc1ccc(NC(=O)Nn2cnnc2)cc1
0.27	-0.04	CCC1(C)Cc2ccccc2-c2nc3n(c(=O)c21)CCS3 (stereo not given)

# The last 2 compounds of the part above come first, to join the parts:
KCNQ2 enhance	KCNQ2 enhance baseline	smiles
0.16	0.67	Cc1ccc(NC(=O)Nn2cnnc2)cc1
0.27	-0.04	CCC1(C)Cc2ccccc2-c2nc3n(c(=O)c21)CCS3 (stereo not given)
0.09	-1.5	COc1cc2c(cc1NC(=S)Nc1cccc(C(F)(F)F)c1)oc1ccccc12
0.48	-0.31	COCCN(Cc1cc2ccc(C)cc2[nH]c1=O)S(=O)(=O)c1ccccc1
0.74	0.61	C[C@@H]1CC[C@H](O)/C=C/C(=O)O[C@H](C)CC[C@H](O)/C=C/C(=O)O1
0.85	0	CC(C)Oc1cccc(C(=O)NC(=S)Nc2cccnc2)c1
0.44	0.33	CN(Cc1cccs1)C(=O)CSc1nc(N)cc(N)n1
1.4	0.48	CCc1ccc(OCC(=O)NC2CC(C)(C)NC(C)(C)C2)cc1
0.66	-0.1	CCNC(=S)N/N=C(\C)c1ccc2c(c1)OCCO2
0.48	1.7	Cc1ccc(S(=O)(=O)N2CCCC(C(=O)NCCC3=CCCCC3)C2)cc1 (stereo not given)
0.25	0.39	Cc1ccccc1-n1c(=S)[nH]c2nc3c(cc2c1=O)CCCC3
0.21	0.61	CC(=O)c1cccc(N(C(=O)c2ccccn2)C(C(=O)NC2CCCCC2)c2cccs2)c1 (stereo not given)
0.46	-1.1	COc1ccc(C(=O)c2ccsc2N)cc1
1.2	0	CCN1CCN(CCCN(Cc2ccco2)C(=S)Nc2ccc(C)c(Cl)c2)CC1
1.2	0.7	CCOC(=O)N/N=C/c1ccccc1F
0.17	-0.22	COc1ccccc1NC(=O)CCCC(=O)OC(C)C(=O)c1ccccc1 (stereo not given)
0.36	-0.72	Cc1ccccc1C1C(=O)c2ccccc2C1=O

# Remaining list, next part.
KCNQ2 enhance	KCNQ2 enhance baseline	smiles
1.3	-1.6	COC(=O)c1cc(NC(=O)c2ccc(-c3ccccc3)cc2)ccc1Cl
0.14	0.7	CCOc1ccc2oc(C(=O)NNC(=O)c3ccccc3O)c(C)c2c1
0.67	2.1	COC(=O)c1nnn(-c2nonc2N)c1CSc1nnc(N)s1
0.14	1.9	Cc1cccn2c(=O)c3cc(S(=O)(=O)c4ccc(Br)cc4)c(=N)n(C4CCCC4)c3nc12
0.82	-0.39	CC(C)(C)c1ccc(C(=O)Nc2ccc(N3CCOCC3)cc2)cc1
0.31	0.25	Cc1c(NC(=O)CC(O)(C(F)(F)F)C(F)(F)F)c(=O)n(-c2ccccc2)n1C
0.03	1.9	CN(C(=O)c1ccc(S(=O)(=O)N2CCCC2)cc1)C1CCCCC1
0.2	-1.8	O=C(N[C@@H](Cc1ccccc1)C(=O)N1CCC2(CC1)NCCc1[nH]cnc12)c1cccc(F)c1
0.35	-0.06	CCOc1ccccc1/C=C(\NC(=O)c1ccccc1)C(=O)NCCC(=O)O
0.48	-0.18	CC(C)c1nnc(NC(=O)CCc2ccccc2)s1
2.4	-1.7	COC(=O)C(NC(C)=O)(Nc1nc2c(s1)CCCC2)C(F)(F)F (stereo not given)
0.36	-1.4	CCOC(=O)c1c(C)[nH]c(C(=O)N2CCC(C(=O)OCC)CC2)c1C
0.17	-1.3	COc1ccc2c(C)cc(N3CCN(c4ccc(F)cc4)CC3)nc2c1
1.5	-0.11	Cc1ccc(CN2CCN(/N=C/c3cccs3)CC2)cc1
0.06	-0.5	N#CCc1ccc(NC(=O)c2ccc(S(=O)(=O)N3CCOCC3)cc2)cc1

# (cont.)
KCNQ2 enhance	KCNQ2 enhance baseline	smiles
0.24	0.43	Cn1nccc1C(=O)N1CCN(c2cccc(Cl)c2)CC1
1.5	-1.7	COC(=O)c1ccc(NC(=O)Nc2ccc(C)cc2)cc1
1.5	0.09	Cc1nc2c(-c3ccc(Cl)cc3)cnn2c(N)c1-c1ccc(F)cc1
1.1	-1.8	O=C1NCCCc2nc(Oc3ccccc3)sc21
1.6	-1.6	CC(=O)Nc1ccc(NC(=O)c2nc(S(=O)(=O)Cc3cccc(C)c3)ncc2Cl)cc1
1.4	0.74	CCOC(=O)Cn1cnc2c(nnn2-c2cccc(Cl)c2)c1=O
0.67	-0.03	Cc1noc(NS(=O)(=O)c2ccc(NC(=O)CSc3nc4c(cc3C#N)CCCC4)cc2)c1C
0.97	2.5	CC(C)(c1ccccc1)c1ccc(OCC2CO2)cc1 (stereo not given)
0.16	0.94	COc1ccc(Oc2nc3ccccc3n(C)c2=O)cc1
1.1	-0.63	COc1ccccc1NS(=O)(=O)c1ccc2[nH]c(=O)[nH]c2c1
0.97	-0.02	Cc1ccc(OCC(=O)N2c3ccccc3CC2C)c([N+](=O)[O-])n1 (stereo not given)
8.5*	0.65*	O=C(Nc1cccc(S(=O)(=O)N2CCCCC2)c1)c1ccc([N+](=O)[O-])o1
1.8	-0.1	Cc1cccc(C(=O)Nc2cccc(C(=O)N/N=C/c3ccccn3)c2)c1
0.71	-0.77	COc1cccc(CNC(=O)c2ccccc2NC(=O)C2=C(C)OCCS2)c1
0.25	-1.1	O=C(NCc1cn(-c2ccccc2)nc1-c1ccccc1)c1cccc([N+](=O)[O-])c1

# (next part)
KCNQ2 enhance	KCNQ2 enhance baseline	smiles
0.55	-0.33	CCOc1cc(C(=O)Nc2cccc(C(C)=O)c2)ccc1OCC(=O)N1CCCCC1
0.1	1.2	OCCCc1nc2n(n1)C(c1ccccc1)C=C(c1ccccc1)N2 (stereo not given)
0.67	0.57	CCc1nnc(NC(=O)CSc2nnc3c(C)cc4c(C)ccc(C)c4n23)s1
1.3	-0.63	CCc1ccccc1NC(=O)CN(C)S(=O)(=O)c1ccc2c(c1)c(=O)n(C)c(=O)n2C
1.9	0.43	O=S(=O)(NC(=S)Nc1ccccc1)c1ccc(F)cc1
1.1	-0.17	COc1ccc(N2CCN(C(=S)Nc3ccc(C)cc3C)CC2)cc1
0.03	0.01	C[C@H]1CCC[C@]2(O[C@@H](CCO)C[C@@H](O)[C@@H]2O)O1
0.92	-0.59	O=C(c1ccccc1)N1CCN(c2ccc(NCc3ccc4c(c3)OCO4)cc2)CC1
0.31	-0.83	CC1CCC2(CC1)SCC(=O)N2c1ccccc1 (stereo not given)
0.66	0.57	O=c1oc2ccccc2n1Cn1c(=O)oc2ccccc21
0.13	-0.08	O=C(CN(C(=O)c1csnn1)c1cccc2ccccc12)NCc1ccccc1
0.19	0.02	Cc1ccc(S(=O)(=O)N2CCN(C(=O)c3ccnn3C)CC2)cc1C
0.93	0.53	CSC1=NS(=O)(=O)c2c(C)nn(C)c2S1
0.09	-0.2	CC(C)(C)OC(=O)NNc1c2ccccc2nc2ccccc12
0.54	1.1	Cc1ccc(C)c(Cn2c(=O)n(CCCC(=O)NCc3ccco3)c(=O)c3ccccc32)c1

# (listing goes on)
KCNQ2 enhance	KCNQ2 enhance baseline	smiles
0.52	0.39	Cc1ccccc1C(O)c1ccncc1 (stereo not given)
0.99	1.3	COc1cc(OC)cc(C(=O)NCC(=O)Nc2ccc(OC)c(Cl)c2)c1
0.46	0.16	Cc1cc(NS(=O)(=O)c2ccc(NC(=O)CSc3nc4ncc(Br)cc4[nH]3)cc2)nc(C)n1
0.23	0.97	Cc1nnsc1C(=O)N1CCCC(N2CCN(c3cccc(C(F)(F)F)c3)CC2)C1 (stereo not given)
0.22	0.56	CC1CC(C)(C)NC(=S)N1CC(=O)NCc1ccc2c(c1)OCO2 (stereo not given)
0.59	-0.97	CCOc1ccc(Cn2ccnc2CCl)cc1[N+](=O)[O-]
0.51	0.93	Cc1cc(C)c2[nH]c(=O)c(CN(C(=O)C3CCCO3)C3CCCC3)cc2c1 (stereo not given)
0.29	0.45	COc1ccc(N(CC(=O)NN=C2CCCCCCC2)S(=O)(=O)c2ccccc2)cc1
0.35	-0.22	O=C1NC(c2ccccc2)C(C(=O)c2cccs2)=C1O (stereo not given)
0.47	-0.59	CCN(c1ccccc1)S(=O)(=O)c1ccc(Cl)c(NC(=O)COC(=O)c2ccc(O)cc2)c1
0.47	-0.12	c1ccc(CSc2ccc(-c3cccnc3)nn2)nc1
0.2	-0.29	O=C(Nc1nc(-c2ccccc2)cs1)c1ccc2c(=O)n3c(nc2c1)CCCCC3
1.8	1.4	CCOC(=O)C(=O)NCC(c1cccs1)S(=O)(=O)c1ccc(F)cc1 (stereo not given)
0.07	0.34	O=C(Nc1ccccc1F)c1c[nH]c(=O)[nH]c1=O
0.05	-0.48	CC(C)(C)C(=O)c1cnc(Nc2ccccc2)s1

# Part of the list above, comma-delimited.
smiles,KCNQ2 enhance,KCNQ2 enhance baseline
Cc1nnsc1C(=O)N1CCCC(N2CCN(c3cccc(C(F)(F)F)c3)CC2)C1 (stereo not given),0.23,0.97
Cc1cc(NS(=O)(=O)c2ccc(NC(=O)CSc3nc4ncc(Br)cc4[nH]3)cc2)nc(C)n1,0.46,0.16
O=C(Nc1ccccc1F)c1c[nH]c(=O)[nH]c1=O,0.07,0.34
CC(C)(C)C(=O)c1cnc(Nc2ccccc2)s1,0.05,-0.48
CCN(c1ccccc1)S(=O)(=O)c1ccc(Cl)c(NC(=O)COC(=O)c2ccc(O)cc2)c1,0.47,-0.59
CCOC(=O)C(=O)NCC(c1cccs1)S(=O)(=O)c1ccc(F)cc1 (stereo not given),1.8,1.4
COc1ccc(N(CC(=O)NN=C2CCCCCCC2)S(=O)(=O)c2ccccc2)cc1,0.29,0.45

# Other structures follow:
KCNQ2 enhance	KCNQ2 enhance baseline	smiles
2.1	-1.8	CCC(Sc1ccc(C(=O)O)cc1)C(=O)O (stereo not given)
1.5	0.54	Cc1ccccc1N=C1NC(=O)/C(=C/c2cccnc2)S1
1.6	-0.15	C1=C(c2ccccc2)N2CCN=C2S1
0.23	-0.56	COc1ccccc1-n1cnnc1SC(C)C(=O)Nc1cccc([N+](=O)[O-])c1 (stereo not given)
4.7	0.08	Cc1sc2nc(SC3CCOC3=O)n(Cc3ccccc3)c(=O)c2c1C (stereo not given)
0.52	-0.56	CCCCc1nnc(NC(=O)c2nc3nccc(C)n3n2)s1
0.31	0.76	CCC(CC)C(=O)NCCc1ccc(S(N)(=O)=O)cc1
0.4	2.2	CCOC(=O)C1CCN(c2c(NCCN(CC)c3ccccc3)c(=O)c2=O)CC1
0.59	-0.62	CCCC(=O)Nc1cc(C)c2c(=O)oc3ccccc3c2n1
1	0.18	CCCCC(=O)NS(=O)(=O)c1ccc(N=NN2CCOCC2)cc1
0.85	-1.7	Cc1ccc(CSc2nnc(SCC(=O)N/N=C/c3c[nH]c4ccccc34)s2)cc1
0.28	-1.4	CC(C)(C)C(=O)C[n+]1ccc(C(N)=O)cc1
0.67	1.3	CC(=O)Nc1ccc(SC(C)C(=O)NC(N)=O)cc1 (stereo not given)
0.59	0.25	COC(=O)C(c1ccccc1)N(Cc1cccc(CN(C(C(=O)OC)c2ccccc2)S(C)(=O)=O)c1)S(C)(=O)=O (stereo not given)
2.3	0.42	CO/N=C\CC(=O)Nc1ccc(Oc2ccccc2)cc1
